Bioassay records (PubChem BioAssay)
FGF22 binding – FGF22 (human) thermal shift binding | recombinant FGF22 thermal shift, SYPRO orange fluorescence; percent of sucrose octasulfate shift, DMSO zero | calls only at 9.99 µM | AID 651658 | 1.5% of 340,000 active;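 active = melting point raised past a set limit in the mean and every replicate; three in four hits are not shown here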
Target sequence (Q9HCT0 whole entry, looked up): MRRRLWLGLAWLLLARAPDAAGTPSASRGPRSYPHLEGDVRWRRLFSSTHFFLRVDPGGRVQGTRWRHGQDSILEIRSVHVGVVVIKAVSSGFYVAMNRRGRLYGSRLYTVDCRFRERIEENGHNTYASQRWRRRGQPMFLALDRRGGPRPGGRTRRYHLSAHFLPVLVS
MLL AF4-AF9 inh – blocks AF4 peptide binding to human AF9 | P42568 | 0.47% of 350,000 active | AlphaScreen, biotin-AF4 peptide binding to FLAG-AF9 | AID 651704 | inhibition, % at 10 µM;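 active = every replicate reaching a set inhibition limit, whatever the replicate mean, cut at about 25% in these data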;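 note: 0% = plate neutral control median and 100% = total signal loss; the record names both 10 and 1 µM as test concentration; the first replicate is given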
Target sequence (P42568 whole entry, looked up): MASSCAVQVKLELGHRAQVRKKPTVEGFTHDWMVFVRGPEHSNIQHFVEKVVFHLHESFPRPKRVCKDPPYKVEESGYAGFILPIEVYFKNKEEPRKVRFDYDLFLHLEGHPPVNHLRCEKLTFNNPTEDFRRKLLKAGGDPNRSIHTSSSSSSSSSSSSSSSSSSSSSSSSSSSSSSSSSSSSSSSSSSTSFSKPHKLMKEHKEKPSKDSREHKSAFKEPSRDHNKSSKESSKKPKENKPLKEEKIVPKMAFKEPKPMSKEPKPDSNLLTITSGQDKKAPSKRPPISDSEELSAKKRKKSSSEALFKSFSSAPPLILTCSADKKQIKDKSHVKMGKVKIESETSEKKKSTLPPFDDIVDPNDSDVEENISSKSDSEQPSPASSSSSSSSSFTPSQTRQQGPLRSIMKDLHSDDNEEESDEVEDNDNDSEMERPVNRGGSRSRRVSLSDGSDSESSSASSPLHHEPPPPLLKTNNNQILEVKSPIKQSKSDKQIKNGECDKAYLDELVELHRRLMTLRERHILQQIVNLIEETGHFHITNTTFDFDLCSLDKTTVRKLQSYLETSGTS
rRNA inh HTS – selective bacterial rRNA inhibition in E. coli | E. coli WT GFP vs humanized-ribosome RFP mutants, fluorescence, 24 h; active compounds read low; DMSO median 0, no signal -100 | GFP signal change (wild-type ribosome), % (concentration not given with the values) | 1.6% of 350,000 active;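 active = significant combined selectivity score with lowered wild-type GFP, culture density cut under 30%, mutant RFP and density less affected; inactive = any of these conditions unmet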; note: one replicate is shown; some compounds called inactive have numbers as strong as hits
rRNA inh HTS OD600 – second read-out of rRNA inh HTS, no call of its own (marks repeat the call); OD600 change, %; measured here: OD600 growth;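 optical density of the mix in the first replicate; 0 = DMSO median and -100 = no signal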
rRNA inh HTS RFP – second read-out of rRNA inh HTS, no call of its own (marks repeat the call); RFP signal change, %; measured here: RFP humanized mutant strains;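 first replicate; 0 = DMSO median and -100 = no signal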
Active calls of the source: *; i = inactive; & = joins results of further samples. An excerpt (hit frequency here may not be typical).

Start of the data: the first 2 compounds, ahead of the listing:
FGF22 binding	MLL AF4-AF9 inh	rRNA inh HTS	rRNA inh HTS OD600	rRNA inh HTS RFP	Molecule
i	1.8	-5	4	-1.9	CC1(C(=O)NS(=O)(=O)c2ccc(C#N)cc2)CCN1C(=O)C1(c2ccc(Cl)cc2)CC1 (configuration not stated)
i	-2.2	-4	1	-0.1	COc1ccc(CNC(=O)N(C)C[C@H]2OCc3ccccc3-c3ccccc3C(=O)N([C@@H](C)CO)C[C@H]2C)cc1

The whole of this part, from the start:
FGF22 binding	MLL AF4-AF9 inh	rRNA inh HTS	rRNA inh HTS OD600	rRNA inh HTS RFP	Molecule
i	1.8	-5	4	-1.9	CC1(C(=O)NS(=O)(=O)c2ccc(C#N)cc2)CCN1C(=O)C1(c2ccc(Cl)cc2)CC1 (configuration not stated)
i	-2.2	-4	1	-0.1	COc1ccc(CNC(=O)N(C)C[C@H]2OCc3ccccc3-c3ccccc3C(=O)N([C@@H](C)CO)C[C@H]2C)cc1
i	0.7	-7	-20	-0.3	COc1ccc(NC(=O)N(C)C[C@H]2Oc3cc(-c4ccc(C)cc4)ccc3S(=O)(=O)N([C@@H](C)CO)C[C@H]2C)cc1
i	-4.3	0	-4	-1.6	COCC(=O)N(C[C@@H]1[C@@H](c2ccccc2)[C@H](CO)N1C(=O)NC(C)C)C(C)C
i	-1.0	-4	-9	-0.2	O=C(C[C@@H]1C[C@H]2c3cc(NS(=O)(=O)c4ccc(F)cc4)ccc3O[C@H]2[C@@H](CO)O1)NC1CCCCC1
i	3.1	-3	-2	-3.7	C[C@@H]1CN([C@H](C)CO)C(=O)c2cccc(NC(=O)Nc3ccccc3)c2O[C@@H]1CN(C)Cc1ccc(C(=O)Nc2ccccc2N)cc1
i	1.5	-1	-13	4.2	CO[C@H]1CN(C)C(=O)c2ccc(NC(=O)C3CC3)cc2OC[C@H](C)N(Cc2cccc(F)c2)C[C@@H]1C
i	-0.6	-4	-1	-2.5	COc1ccc(S(=O)(=O)Nc2ccc3c(c2)C(=O)N([C@@H](C)CO)C[C@@H](C)[C@@H](CN(C)C(=O)Nc2ccc(F)cc2)OCCCC[C@H](C)O3)cc1
i	-2.8	-6	-5	2.2	CC1(C(=O)NCc2ccccc2)Cc2c(-c3ccc(C(N)=O)cc3)ccnc2O1 (configuration not stated)
i	0.1	-4	-10	-1.8	CCCNC(=O)C[C@@H]1C[C@H]2c3cc(NS(=O)(=O)c4cccc(OC)c4)ccc3O[C@H]2[C@H](CO)O1
i	13	0	-31	25	C[C@@H]1CN([C@@H](C)CO)C(=O)c2cc(-c3cccnc3)cnc2O[C@H]1CN(C)Cc1ccc(-c2ccccc2)cc1
i	-1.8	3	-2	-1.0	C[C@@H]1CN([C@@H](C)CO)C(=O)c2cc(NC(=O)Nc3cccc4ccccc34)ccc2O[C@H]1CN(C)S(=O)(=O)c1cccs1
i	-3.4	1	-7	2.9	Cc1cc(C(=O)Nc2cccc3c2O[C@H](CN(C)Cc2ccc(-c4ccccc4)cc2)[C@H](C)CN([C@@H](C)CO)C3=O)n(C)n1
i	-1.5	2	-7	2.2	COc1ccccc1CNC(=O)C[C@@H]1C[C@@H]2c3cc(NC(=O)NC4CCCC4)ccc3O[C@@H]2[C@H](CO)O1
i	-0.1	3	-6	1.1	COCC#Cc1cnc2c(c1)C(=O)N([C@@H](C)CO)C[C@H](C)[C@@H](CN(C)C(=O)Nc1cc(F)ccc1F)O2
i	-0.6&-1.6&-2.5	0&-1	0&2	-5.0&-1.5	C[C@H]1CN([C@@H](C)CO)C(=O)c2cc(Br)cnc2O[C@H]1CN(C)C(=O)c1ccccn1
i	-7.7	3	3	-1.2	CC(C)CC#Cc1cnc2c(c1)C(=O)N([C@@H](C)CO)C[C@H](C)[C@@H](CN(C)S(C)(=O)=O)O2
i	-21	2	6	-2.9	C[C@H](CO)N1C[C@H](C)[C@@H](CN(C)S(=O)(=O)c2ccsc2)OCc2ccccc2-c2c(n(C)c3ccccc23)C1=O
i	-0.4	8	5	0.9	CCCC(=O)N1CCCC(c2cc(C(=O)Nc3ccccc3)no2)C1 (configuration not stated)
i	0.3	-5	2	2.8	O=C(C[C@@H]1CC[C@H]2[C@@H](COC[C@H](O)CN2Cc2ccc(Oc3ccccc3)cc2)O1)N1CCOCC1
i	0.8	0	2	1.4	COCC(=O)N1C[C@H](C)[C@H](OC)CN(C)C(=O)c2cc(NC(=O)c3ccc(OC)cc3)ccc2OC[C@H]1C
i	1.0	2	6	0.4	CC(C)NC(=O)N(C)C[C@@H]1Oc2ccc(NC(=O)Nc3ccc(F)cc3)cc2CC(=O)N([C@@H](C)CO)C[C@H]1C
i	-21	-1	-4	-2.3	CCS(=O)(=O)Nc1ccc2c(c1)C(=O)N(C)[C@H]1CC[C@@H](CC(=O)NCc3ccccc3F)O[C@H]1CO2
i	-1.6	-2	-12	-2.3	C[C@@H]1CCCCO[C@@H](CN(C)S(=O)(=O)c2ccccc2)[C@H](C)CN([C@@H](C)CO)C(=O)c2cc(NS(=O)(=O)c3ccccc3)ccc2O1
i	20	-40	-52	9.3	C[C@@H]1CN([C@@H](C)CO)C(=O)Cc2cc(NC(=O)Cn3cnnn3)ccc2O[C@H]1CN(C)Cc1ccc(Oc2ccccc2)cc1
i	3.9	9	0	4.2	CN(CCN1CCc2ccccc2C1)Cc1nc(Cc2ccccc2F)no1
i	1.9	4	1	0.1	C[C@@H]1CN([C@H](C)CO)C(=O)Cc2cc(NC(=O)CCN3CCOCC3)ccc2O[C@H]1CN(C)Cc1ccccc1
i	-2.4	-5	-2	-1.6	O=S(=O)(N[C@@H]1CC[C@@H](CCn2cc(-c3cccnc3)nn2)O[C@@H]1CO)c1ccc(Cl)cc1
i	2.5	-4	-11	9.0	C[C@@H]1CN([C@H](C)CO)C(=O)Cc2cc(NC(=O)CCCCCC(=O)Nc3ccccc3N)ccc2O[C@@H]1CN(C)Cc1ccc(Oc2ccccc2)cc1
i	5.1	-28	-29	0.7	C[C@@H]1CN([C@H](C)CO)C(=O)c2cccc(NC(=O)Nc3ccc4c(c3)OCO4)c2O[C@@H]1CN(C)C(=O)Nc1cccc2ccccc12
i	-3.5	3	9	0.0	CNC[C@H]1Oc2c(NS(=O)(=O)c3ccc(Cl)cc3)cccc2C(=O)N([C@@H](C)CO)C[C@H]1C
i	-1.3	5	9	1.3	O=S1(=O)CC(N2CCSCC2)CN1Cc1cn(Cc2cccc(C(F)(F)F)c2)nn1 (configuration not stated)
i	-2.6	5	21	-2.1	COC(=O)C1=C(C(=O)OC)C(C(=O)OC)C(C(=O)OC)C(C(=O)OC)(C(=O)OC)C(C(=O)OC)=C1C(=O)OC (configuration not stated)
i	3.1	-8	-16	3.5	N#CCC(=O)Nc1ccc(C(=O)OCC(=O)Nc2cc(-c3ccccc3)nn2-c2ccccc2)cc1
i	-0.2	0	10	-2.5	CCC(=O)Nc1ccc2c(c1)C(=O)N(C)C[C@H](OC)[C@H](C)CN(CC1CCCCC1)[C@H](C)CO2
i	-3.1	-3	-16	3.2	N#Cc1cccc(NC(=O)c2cc(C3CCCCN3C(=O)c3ccc4c(c3)CCO4)on2)c1 (configuration not stated)
i	1.1	13	17	-1.4	COC(=O)/C=C1\OCc2c(F)cccc21
i	-6.7	-5	-7	-1.5	C[C@@H]1CN([C@H](C)CO)C(=O)c2cc(NS(C)(=O)=O)ccc2O[C@H]1CN(C)Cc1ccc(C(F)(F)F)cc1
i	-5.4	-1	-9	2.8	O=C1c2ccccc2C(=O)N1CC(O)COc1cccc2ccccc12 (configuration not stated)
i	0.2	4	12	1.5	COC(=O)[C@@H]1[C@@H](CO)[C@@H]2Cn3c(cccc3=O)[C@@H]2N1C(=O)C1CCCCC1
i	-0.1	-1	-10	0.8	O=C(C[C@@H]1C=C[C@H](NC(=O)CN2CCOCC2)[C@H](CO)O1)NCc1cccc(F)c1
i	-4.3	4	4	-4.5	C[C@@H]1CN([C@@H](C)CO)C(=O)c2cc(C#CC3CC3)cnc2O[C@@H]1CN(C)C(=O)Cc1ccccn1
i	-1.8	-3	-9	-2.2	CCc1sc(N2[C@@H](C#N)[C@@H](c3ccccc3-c3ccc(F)cc3)[C@@H]2CO)nc1C
i	-0.1	5	-5	2.4	CCCCCCCCN1C(=O)[C@@H](CC(=O)NCCCOC)C[C@@]2(C(=O)OC)C1=C[C@H](C1CCCC1)O[C@@H]2C
i	-1.4	-2	-1	-1.3	CC(C)NC(=O)Nc1cccc2c1O[C@H](CN(C)C(=O)Nc1ccc3c(c1)OCO3)[C@@H](C)CN([C@H](C)CO)C2=O
i	-0.2	0	2	0.7	C[C@@H](O)C#Cc1cnc2c(c1)C(=O)N([C@@H](C)CO)C[C@H](C)[C@@H](CN(C)C(=O)CC1CC1)O2
i	-1.2	-2	-9	-3.0	CCCNC(=O)N1CC2(C1)[C@H](c1ccccc1)[C@@H](CO)N2CC1CCCC1
i	-0.3	0	4	-4.7	C[C@@H]1CN([C@@H](C)CO)C(=O)c2ccccc2-c2ccccc2CO[C@H]1CN(C)Cc1ccc(C(=O)O)cc1
i	-2.0	26	25	3.9	CCC1Cc2[nH][nH]c(=O)c2C(CC)O1 (configuration not stated)
i	-1.2	3	7	-0.5	O=C(C[C@@H]1CC[C@@H]2[C@H](COC[C@@H](O)CN2C(=O)c2ccncc2)O1)NC1Cc2ccccc2C1

Record cards, from the list above:
Listed for `COC(=O)/C=C1\OCc2c(F)cccc21` = FGF22 binding = i; MLL AF4-AF9 inh = 1.1; rRNA inh HTS = 13; rRNA inh HTS OD600 = 17; rRNA inh HTS RFP = -1.4
Listed for `C[C@@H]1CN([C@H](C)CO)C(=O)c2cccc(NC(=O)Nc3ccc4c(c3)OCO4)c2O[C@@H]1CN(C)C(=O)Nc1cccc2ccccc12` = FGF22 binding = i; MLL AF4-AF9 inh = 5.1; rRNA inh HTS = -28; rRNA inh HTS OD600 = -29; rRNA inh HTS RFP = 0.7

(list continues)
FGF22 binding	MLL AF4-AF9 inh	rRNA inh HTS	rRNA inh HTS OD600	rRNA inh HTS RFP	Molecule
i	-8.4	-1	2	0.2	Cc1noc(C)c1S(=O)(=O)N(C)C[C@H]1OCCCC[C@@H](C)Oc2ccc(NS(C)(=O)=O)cc2C(=O)N([C@@H](C)CO)C[C@@H]1C
i	1.3	4	0	-3.5	CN1CCCCN2[C@H](C1)[C@@H](c1ccc(-c3cccnc3)cc1)[C@@H]2CO
i	2.0	-10	-22	-4.7	N#Cc1cccc(C=C(C(=O)c2ccccc2)c2ccccc2)c1
i	-0.5	19	12	-1.1	COc1ccc(NC(=O)CN(C)C(=O)C2CC(=O)N(CCc3ccc(OC)c(OC)c3)C2)cc1 (configuration not stated)
i	-1.7	-1	5	0.7	COC(=O)[C@H]1[C@H](CO)[C@H]2Cn3c(ccc(-c4ccncc4)c3=O)[C@H]2N1Cc1ccccc1F
i	-1.3	2	6	-0.9	CCCNC(=O)N[C@H]1C=C[C@H](CC(=O)NC2CCC2)O[C@@H]1CO
i	-2.1	6	5	0.9	O=C(c1ccc(-c2ccccc2)cc1)N1CCN(c2nc3ccccc3o2)CC1
i	7.4	1	4	-1.4	CN(C)CC(=O)N[C@H]1C=C[C@H](CC(=O)NCCN2CCCCC2)O[C@@H]1CO
i	-3.8	9	20	-1.9	CCOC(=O)[C@]12CCC=C1N(Cc1ccco1)C(=O)[C@H](CC(=O)NCCCN1CCCC1=O)C2
i	9.6	6	16	7.1	O=[N+]([O-])c1ccc(COc2cccc(CN3CCOCC3)c2)cc1
i	1.6	1	10	-5.5	C[C@H](O)C#Cc1ccc([C@H]2[C@@H](CO)N3CCCCN(C(=O)c4ccncc4)C[C@H]23)cc1
i	1.1	2	5	-2.5	CO[C@H]1CN(C)C(=O)c2cc(NC(=O)C3CCC3)ccc2OC[C@@H](C)N(CC2CCCCC2)C[C@H]1C
i	1.7	8	25	4.8	O=C(C[C@H]1CC[C@H](NC(=O)c2ccc3c(c2)OCO3)[C@H](CO)O1)NCc1ccc(F)cc1
i	-2.3	-1	-1	-0.4	CO[C@H]1CN(C)C(=O)c2ccc(NC(C)=O)cc2OC[C@@H](C)N(C(=O)c2ccccc2)C[C@H]1C
i	0.2	-21	-54	12	N#C[C@@H]1[C@@H](c2ccc(-c3cccc(F)c3)cc2)[C@H](CO)N1S(=O)(=O)c1cccc(F)c1
i	0.2	2	6	2.6	COc1ccc(C#Cc2ccc3c(c2)[C@H]2[C@H](CCN2S(=O)(=O)c2ccc(OC)cc2)[C@H](CO)N3C)cc1
i	-2.5	-32	-70	11	O=C(Nc1ccc(-c2ccccc2)cc1)[C@H]1[C@H](CO)[C@H]2Cn3c(cccc3=O)[C@@H]1N2Cc1ccccc1
i	0.0	2	10	0.1	COCC(=O)Nc1ccc2c(c1)C(=O)N(C)[C@@H]1CC[C@@H](CC(=O)NCC3CCCCC3)O[C@H]1CO2
i	-3.4	-3	-8	1.1	C[C@H]1CN([C@@H](C)CO)C(=O)CCCn2nncc2CO[C@@H]1CN(C)S(=O)(=O)c1ccc(Cl)cc1
